# Screening results: PubChem, National Center for Advancing Translational Sciences (NCATS)
# Prx2 Sm inh: Schistosoma mansoni Prx2 inhibition; 65,000 tested, 0.07% active; Potency, µM; S. mansoni Prx2 activity coupled to TGR/GSH (TGR is thioredoxin glutathione reductase), NADPH fluorescence loss, qHTS; some inactives read as strong as hits; AID 448; active means full or partial inhibition curve with a strong effect at the top dose; inconclusive means weaker partial or single-point curve; inactive means no accepted curve; also: series up to 57 µM; many of its hits are not listed in these tables
#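 Purified S. mansoni TGR and Prx2 in pH 7.4 phosphate buffer with EDTA and Tween-20 were preincubated with compounds for 15 min. Further NADPH/GSH was added, then a 2.5 mM H2O2 aliquot initiated turnover, followed kinetically by NADPH fluorescence.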
# Anthrax LT inh: inhibitors of anthrax lethal toxin internalization; Cells, anthrax lethal toxin internalization, FRET ratio (460/530); Potency, µM (titrated, usually from 40 µM), for inactives: at the highest dose activity change, negative = inhibition, most hits filed as inhibitors; 70,000 tested, 0.67% active; active = well fitted falling ratio curve with the 530 nm signal flat; inconclusive = other ratio curves, or a change in one channel alone; inactive = flat curves in the ratio and both channels; the % refers to the ratio; also: % is scaled to controls: 0 for no effect and ±100 for the full control effect; nearly all actives have a fitted effect of over 50% in size; tested in ME-180 cells; beta-lactamase reporter
# * marks the source's active call; other numbers are inactive results; u = inconclusive; x = no result given; & = joins results of further samples; [ ] = remark or other dose. Potency is read from the fitted curve at half-maximal effect.
# Values in the order – Prx2 Sm inh | Anthrax LT inh
- Clc1ccccc1-c1ccc2ncnc(NCCN3CCOCC3)c2c1
  >57 | u
- COc1cc2c(cc1OC)C(Cc1ccc(O)cc1)N(C)CC2 (configuration not stated)
  x | -6%
- COc1ccc(-c2ccc(SCC(=O)Nc3cc(C)on3)nn2)cc1OC
  >57 | u
- COCC1C2CC[C@H]3C(OCc4ccc(OC)cc4)OC[C@]4(C)[C@H]3C2=C(CN4C(=O)OC(C)(C)C)[C@H](C)C1COC (some centres not stated)
  >57 | -23%
- Cc1csc(NC(=O)CSc2nc3ccccc3c(=O)[nH]2)n1
  >57 | 0%
- COc1cc(N)c(Cl)cc1NC(=O)c1ccccc1
  >57 | -12%
- COc1cc2c(cc1OC)C(C)N(C(=O)Cn1ncc3c1-c1ccccc1OC3)CC2 (configuration not stated)
  >57 | 1%
- Cc1cc(C)nc(NC(=O)COc2ccc(Cl)cc2)c1
  >57 | -5%[8 µM]
- O=C(CN1C(=O)CSC1=O)Nc1ccc2c(c1)OCCO2
  >57 | 9%
- COc1ccc(NC(=O)N2CC(C)OC(C)C2)cc1OC (configuration not stated)
  >57 | 3%
- C/C(CCN1CCCCc2nc(C)c(C)cc21)=N\O[C@@H](C)CN1CCCCc2nc(C)c(C)cc21
  x | -10%[1.6 µM]
- O=C(COc1ccc(Cl)cc1)Nc1ccc2oc(-c3ccncc3)nc2c1
  >57 | -17%
- O=S(=O)(NC1=NCCCCCC1)c1cccs1
  >57 | -3%
- O=C(O)[C@@H](Br)[C@H](Br)C(=O)O
  >57 | -17%[8 µM]
- COC(=O)Cc1ccc(NC(=O)c2ccc(Br)o2)cc1
  >57 | -8%
- CN(C)c1cc(N)c2c(n1)CCC2 (tested in a mixture with another compound)
  >57 | -8%
- OCC1OC(C#Cc2ccccc2)C=CC1O (configuration not stated)
  x | -6%&-2%&-2%[8 µM]
- COc1cc(OC)cc(C(=O)NCCN2CCOCC2)c1
  >57 | 4%
- COc1ccc(NC(=O)CCN2CCC(C)CC2)cc1
  x | -17%
- N#Cc1nc(-c2cccs2)oc1N1CCN(c2ccccc2)CC1
  x | u
- Clc1ccc2nc(NC3=NCN(CCN4CCOCC4)CN3)nc(-c3ccccc3)c2c1
  >57 | -13%
- Cc1cccn2c(=O)c(/C=N/O)c(N3CCCCC3)nc12
  >57 | -2%
- Clc1cccc(-c2nc(-c3ccccn3)no2)c1
  >57 | -4%
- OCC1OC(C#Cc2ccccc2)C=CC1OCc1ccccc1 (configuration not stated)
  x | u
- O=C(CCc1ccc(S(=O)(=O)N2CCOCC2)cc1)Nc1cc(Cl)ccc1N1CCOCC1
  >57 | u
- Nc1cc(OC(=O)c2ccccc2Br)nn1S(=O)(=O)c1ccccc1
  u | 10µM*
- CC(=O)Nc1ccc2c(c1)C(=Nc1ccc(C(=O)O)cc1)c1ccccc1-2
  >57 | -7%[8 µM]
- O=C(Nc1nc2c(s1)CCCC2)c1cc2n(n1)C(C(F)(F)F)CC(C1CC1)N2 (configuration not stated)
  >57 | 10%
- O=C(c1cn(-c2ccccc2)nc1-c1ccc(F)cc1)N1CCOCC1
  x | 2%
- O=C(OCCN(CCOC(=O)c1ccncc1)S(=O)(=O)c1cccs1)c1ccncc1
  >57 | 8%
- N=c1ccn2c(n1)O[C@H]1[C@@H](OP(=O)(O)O)[C@H](CO)O[C@H]12
  >57 | u
- Cn1c2c(c(=O)n(C)c1=O)CN(CCN1CCNCC1)CN2
  >57 | -5%
- C[C@]1(O)CC[C@H]2[C@H]3CC=C4N5CCN=C5CC[C@@]4(C)[C@H]3CC[C@@]21C
  >57 | 15%[8 µM]
- O=C(Cc1ccc(-c2ccccc2)cc1)N1CCOCC1
  >57 | -10%
- CCOc1cccc(C2C(C(=O)c3ccc(C)o3)=C(O)C(=O)N2c2nccs2)c1 (configuration not stated)
  >57 | 5%
- COc1cc(Cl)c(S(=O)(=O)NCc2cccnc2)cc1Cl
  x | -8%
- CC1CCCN(c2ccc(C(=O)NCCc3ccccc3)cn2)C1 (configuration not stated)
  >57 | -13%
- Nn1c(-c2cccs2)nc2sc3c(c2c1=O)CCCC3
  >57 | -5%
- O=C(Nc1ccc2c(c1)OCO2)c1cnn2c(C(F)(F)F)cc(-c3ccco3)nc12
  >57 | u
- Cc1c(C2OC(=O)C3(CCCCC3)C(=O)C2(C)C)c(=O)n(-c2ccccc2)n1C (configuration not stated)
  >57 | 11%
- CCN(CC)C(=O)CSc1nc2cc3c(cc2c(=O)n1Cc1ccc2c(c1)OCO2)OCO3
  >57 | u
- C=CCOC(=O)Nc1ccc(Cl)cc1NC(=O)OCC=C
  >57 | -4%
- O=C1[C@H]2[C@H]3[C@H](O)[C@H](O)C/C(=N/OCc4ccccc4)[C@H]3CC[C@@H]2C(=O)N1Cc1ccccc1
  x | 1%[1.6 µM]
- CC(=O)Nc1cccc(NC(=O)C2CCCN2C(=O)Nc2ccccc2C)c1 (configuration not stated)
  >57 | 4%
- COc1ccc(C(=O)Nc2cc(-c3nn4c(C)nnc4s3)ccc2C)cc1
  >57 | u
- Cc1cc2cc(C(c3nnnn3CC3CCCO3)N3CCCc4ccccc43)c(=O)[nH]c2cc1C (configuration not stated)
  >57 | u
- CC(CO)(CO)N=Cc1cc(I)cc(I)c1O
  >57 | 7%[8 µM]
- Clc1ccc(Cn2ncc3c(NCCN4CCOCC4)ncnc32)cc1
  >57 | -4%
- O=C(CN1CCOc2ccccc21)N1CCCC1
  >57 | -1%
- CC(=O)N1CCCc2cc(S(=O)(=O)CCC(=O)N3CCN(c4cccc(C)c4)C(C)C3)ccc21 (configuration not stated)
  >57 | -8%
- Cc1[nH]ccc2c1[nH]c1cc(=O)ccc12
  >57&>57 | u
- Cc1ccc(SCC(=O)NCC(C)C)cc1
  >57 | -5%
- CCCN[C@@H]1CCc2c(OC)cccc2[C@@H]1C
  >57 | -19%
- COC(=O)c1cc(OC)c(OC)cc1NC(=O)CN1CCOCC1
  >57 | -15%
- CSCCC(NS(=O)(=O)c1ccc2c(c1)oc(=O)n2C)C(=O)NC1CCC(C)CC1 (configuration not stated)
  >57 | 0%
- CCOC(=O)c1sc(NC(=O)CSc2nc3c(cc2C#N)CCC3)c(C#N)c1C
  x | -7%
- COc1ccc(N=C2SC(CC(=O)Nc3ccc(OC)cc3OC)C(=O)N2C)cc1 (configuration not stated)
  >57 | 0%
- Cc1cccc(NC(=O)CCc2ccc(C)o2)c1
  >57 | -11%
- Cn1nc(-c2ccc(N3CCCCC3)c(NC(=O)c3ccco3)c2)c2ccccc2c1=O
  >57 | -2%
- CCCCNC(=O)CC1C(=O)N(Cc2ccccc2)C(C)c2nc3ccccc3n21 (configuration not stated)
  >57 | 0%

# Next structures.
# Values in the order – Prx2 Sm inh | Anthrax LT inh
- O=C(OCC(=O)N1CCOCC1)C(c1ccccc1)c1ccccc1
  >57 | 11%
- O=C(c1c(Cl)nc2sccn12)N(C(=O)c1c(Cl)nc2sccn12)c1ccc(Cl)cn1
  >57 | u
- CCC(c1nnnn1C1CCCC1)N1CCN(C(=O)c2ccco2)CC1 (configuration not stated)
  >57 | 4%
- Cc1sc2ncnc(Sc3nnnn3-c3ccc(Cl)cc3)c2c1C
  >57 | -13%
- NC(=O)C1CCC(NC(=O)OCc2ccccc2)CC1 (configuration not stated)
  >57 | 9%
- Cc1ccc(OCC(O)Cn2c(N3CCOCC3)nc3c2c(=O)[nH]c(=O)n3C)cc1 (configuration not stated)
  >57 | -10%
- CC(C)[C@@H](CC(=O)N[C@@H]1CCNC[C@H]1C(=O)N[C@H](CC(=O)N[C@@H](CCC(=O)O)CC(=O)O)Cc1ccccc1)NC(=O)C[C@H](CO)NC(=O)[C@@H]1CCCC[C@H]1N
  >57 | -9%
- Clc1ccc(-c2nnc3ccccn23)cc1
  >57 | u
- Cc1nnc(N(Cc2ccco2)C(=O)c2ccno2)s1
  >57 | 5%
- CC(=O)OCC1OC(c2ccc(C(C)=O)cc2)C=CC1OC(C)=O (configuration not stated)
  x | 5%[8 µM]
- Cc1ccccc1OCC1Cn2c(nc3c2c(=O)[nH]c(=O)n3C)O1 (configuration not stated)
  >57 | -3%
- COc1ccc(-n2ncc3c(N4CCc5ccccc54)ncnc32)cc1
  >57 | -1%
- Cc1nc2ccc(S(=O)(=O)NC(CC(C)C)C(=O)O)cc2s1 (configuration not stated)
  >57 | -5%
- COc1nc(OCCNC(=O)Nc2ccccc2)nc(N(C)C)n1
  >57 | -2%
- COc1ccccc1CNC(=O)CCS(=O)(=O)c1ccc2c(c1)CCCN2C(C)=O
  >57 | 1%
- CCNCC
  x | -5%
- CC(NC(=O)NC12CC3CC(CC(C3)C1)C2)C1CCCO1 (configuration not stated)
  >57 | -7%
- Cc1ccc2cccc(S(=O)(=O)N3CCN(c4ccccc4F)CC3)c2n1
  >57 | -18%
- CC(c1ccco1)N(Cc1ccco1)C(=O)Nc1ccccc1 (configuration not stated)
  >57 | -5%
- C=Cc1cccc(NC(=O)COc2ccccc2)c1
  >57 | -3%

# Record cards, as listed above. Order of screens: Prx2 Sm inh, Anthrax LT inh
# CC(c1ccco1)N(Cc1ccco1)C(=O)Nc1ccccc1 (configuration not stated) across the screens: >57, -5%
# CCNCC across the screens: x, -5%
# NC(=O)C1CCC(NC(=O)OCc2ccccc2)CC1 (configuration not stated) across the screens: >57, 9%
# C=Cc1cccc(NC(=O)COc2ccccc2)c1 across the screens: >57, -3%

# New compounds follow
# Values in the order – Prx2 Sm inh | Anthrax LT inh
- COc1ccc(F)cc1S(=O)(=O)Nc1ccc2c(c1)OCO2
  >57 | 1%
- COc1cccc(NC(=O)N2CCN(c3cccc(C)c3)C(C)C2)c1 (configuration not stated)
  >57 | -19%
- CC(=O)Nc1nc2ccccc2n1CCOc1ccccc1Cl
  >57 | -6%
- Fc1cccc(CSc2ncnc3c2oc2ccccc23)c1
  >57 | u
- O=C(CCN1C(=O)CSC1=O)Nc1ccccc1
  >57 | -5%
- CC1=CCC2C(=O)N(c3ccc(C)c(Br)c3)C(=O)C2C1 (configuration not stated)
  >57 | -6%
- O=C(c1ccc(Br)s1)N1CCN(c2ncccn2)CC1
  >57 | -5%
- Cc1cc(-c2nnc3n2N=C(C(C)(C)C)CS3)n[nH]1
  >57 | -10%
- COc1cc(NS(=O)(=O)c2ccccc2)ccc1-n1nc(C)cc1C
  >57 | 2%
- Cc1ccc2cc(C(c3nnnn3Cc3ccccc3)N3CCN(c4ccccc4)CC3)c(=O)[nH]c2c1 (configuration not stated)
  >57 | -19%
- CC(=Nc1ccc2c(c1)CCC2)c1c(O)n(C2CCCCC2)c(=O)[nH]c1=O
  >57 | -1%
- COc1cccc(Cn2c(-c3cccs3)noc2=O)c1
  >57 | -12%
- Cc1sc2nc(SCC(=O)N(C)C)[nH]c(=O)c2c1C
  >57 | 22%
- Cc1ccc2cc3cc(C(=O)NCc4ccc5c(c4)OCO5)oc3nc2c1
  >57 | 18%
- CS(=O)(=O)OCCCCOS(C)(=O)=O
  x | u
- COc1cccc(C2NC(C(=O)O)CCC2C)c1 (configuration not stated)
  x | -16%[8 µM]
- Cc1ccc(-n2cnnn2)c(S(=O)(=O)N2CCOCC2)c1
  x | u
- COC(=O)CSc1nnc(-c2ccccn2)n1Cc1ccco1
  >57 | -16%
- O=C(CN(c1ccc2c(c1)OCCO2)S(=O)(=O)c1ccccc1)NCc1ccco1
  >57 | -1%
- Cc1cc(NC(=O)C2CCC2)n(-c2ccccn2)n1
  >57 | 2%
- Cc1ccc(-n2nc3c(c2NC(=O)c2ccc(Br)o2)CSC3)c(C)c1
  >57 | 2%
- Cc1ccc2nsnc2c1S(=O)(=O)N1CCN(Cc2ccc3c(c2)OCO3)CC1
  >57 | -16%
- COC(=O)C1(C)Nc2ccccc2C(=O)N1c1ccccc1OC (configuration not stated)
  x | -6%
- COc1ccc(COC(=O)c2nc3nc(C)cc(C)n3n2)cc1F
  >57 | -6%
- CCCn1c2ccccc2c2nc3ccccc3nc21
  >57 | -8%
- COc1ccc(NC(=O)[C@H](CCS(C)(=O)=O)N2Cc3ccccc3C2=O)c(OC)c1
  >57 | 7%
- CCCCC(c1nnnn1CC1CCCO1)N1CCN(c2cccc(C)c2C)CC1 (configuration not stated)
  >57 | -26%
- Cc1cc(C)c2cc(CN(Cc3ccc4c(c3)OCO4)Cc3nnnn3Cc3ccco3)c(=O)[nH]c2c1
  >57 | u
- CC1Cc2cc(/C(O)=C3\C(=O)C(=O)N(CCN4CCOCC4)C3c3ccccc3F)ccc2O1 (configuration not stated)
  >57 | -2%
- COC(=O)c1c(C(=O)OC)n(CCCN)c2ccc(C)cc12
  >57 | 10%
- CCn1c(=O)cc(SCC(=O)Nc2ccc3c(c2)OCCO3)c2ccccc21
  >57 | -3%
- CCOC(=O)C1C(=O)C=C(c2ccc(OC)cc2)CC1c1ccco1 (configuration not stated)
  >57 | -12%
- Brc1cccc(-c2nnc(SCc3nc4ccccc4[nH]3)o2)c1
  >57 | -25%
- Cc1nn(-c2ccccc2)c2sc(C(=O)OCn3nnc4ccccc4c3=O)cc12
  >57 | -13%
- CCn1c(SCc2nc(-c3cccs3)no2)nnc1-c1c[nH]c2ccccc12
  >57 | -26%
- Nc1ccc(-c2nc3ccccc3[nH]2)cc1
  >57 | 17%

# Not all compounds are listed. The share of hits here may be higher or lower than overall.
